High-throughput results from PubChem.
CtBP-E1A inh: qHTS Assay for Inhibitors of the CtBP/E1A Interaction. AlphaScreen GST-E1A/His-CtBP binding, 1536-well; active compounds read low; control for the full effect not named in the record. AID 651724, 2012. activity change, % (no concentration beside the values). hit rate 0.49% among 340,000. CtBP / adenovirus E1A interaction (AlphaScreen); in the data active means activity change below about -65%; inconclusive means about -30% to -65%; inactive means above about -30%; further: on the % scale 0 is the no-effect control and ±100 the full control effect
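AlphaScreen with 125 nM GST-E1A and 125 nM His-CtBP (5X stocks) in Tris pH 8.0, 300 mM NaCl, BSA, Tween 20, TCEP. Compounds preincubated 2 h at 37 deg C, then glutathione donor/nickel acceptor beads added for 1 h at 37 deg C in dark.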
D2 potentiator: Beta-Arrestin HTS for Positive Allosteric Modulators of the Human D2 Dopamine Receptor: Potentiators. potentiation, % (no concentration beside the values). AID 624464, 2012. DiscoveRx D2 beta-arrestin cells, luminescence, 90 min; 100% = 57 uM dopamine signal. D(2) dopamine receptor (Homo sapiens), P14416. hit rate 0.23% among 360,000; active = potentiation of 50% or more; inconclusive = 30% to 50%; inactive = 30% or less;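 further: compound concentration not given in the record; tested on top of an EC20 dose of dopamine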
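PathHunter D2 cells, attached overnight at 37 deg C, received compound in DMSO plus dopamine at EC20 (50 nM final) for 90 min at 37 deg C. Beta-arrestin recruitment was read as luminescence after 1 h with detection reagent at ambient temperature.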
gsp antag: qHTS for Antagonists of gsp, the Etiologic Mutation Responsible for Fibrous Dysplasia/McCune-Albright Syndrome: qHTS. gsp-mutant cells, cAMP HTRF, 30 min; control for the full effect not named in the record. Potency, µM (highest dose often 76.9 µM), inactives show top-dose activity change, negative = inhibition, usual class: inhibitors. hit rate 0.4% among 340,000. AID 624288, 2012; active = falling curve of any shape with a large fitted effect; inconclusive = falling curve, mostly with a smaller effect; inactive = flat or rising curve; cell line not stated here;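 further: intracellular cAMP measured with PDE inhibitor Ro 20-1724 present during compound exposure; potency means the concentration at half of the fitted maximal effect; on the % scale 0 is the no-effect control and ±100 the full control effect; nearly all actives have a fitted effect of over 65% in size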
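Cells in G418 medium, seeded 16-24 h, 37C; buffer exchange to DPBS + 1 mM CaCl2, 0.5 mM MgCl2, 0.05% BSA; cpds in DMSO + […] (300 uM stock), 30 min 37C; HTRF cAMP detection.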
Six1-Eya2 inh: qHTS Assay for Inhibitors of the Six1/Eya2 Interaction | AID 651725, 2012 | AlphaScreen GST-Six1/His-Eya2 binding, biochemical; active compounds read low; control for the full effect not named in the record | activity change, % (test concentration not listed) | hit rate 0.56% among 360,000 | Homeobox protein SIX1 (Homo sapiens) + Protein phosphatase EYA2 (Homo sapiens), …; in the data active = activity change below about -65%; inconclusive = about -30% to -65%; inactive = above about -30%; further: on the % scale 0 is the no-effect control and ±100 the full control effect
Target sequence (O00167 whole entry, looked up): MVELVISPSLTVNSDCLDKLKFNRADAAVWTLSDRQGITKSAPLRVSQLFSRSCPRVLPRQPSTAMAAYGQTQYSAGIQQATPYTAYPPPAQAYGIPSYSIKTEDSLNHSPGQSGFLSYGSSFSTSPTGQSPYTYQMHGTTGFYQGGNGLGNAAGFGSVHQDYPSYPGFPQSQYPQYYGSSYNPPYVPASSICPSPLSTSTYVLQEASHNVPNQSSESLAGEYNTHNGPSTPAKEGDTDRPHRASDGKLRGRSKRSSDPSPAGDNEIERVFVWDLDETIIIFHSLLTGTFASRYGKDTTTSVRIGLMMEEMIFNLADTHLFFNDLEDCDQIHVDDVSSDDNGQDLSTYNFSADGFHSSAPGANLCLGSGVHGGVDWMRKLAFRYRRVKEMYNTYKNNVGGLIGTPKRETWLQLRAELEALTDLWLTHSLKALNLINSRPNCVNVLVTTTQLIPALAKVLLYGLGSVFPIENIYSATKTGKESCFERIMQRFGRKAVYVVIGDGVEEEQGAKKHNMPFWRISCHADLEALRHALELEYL
Target sequence (Q15475 whole entry, looked up): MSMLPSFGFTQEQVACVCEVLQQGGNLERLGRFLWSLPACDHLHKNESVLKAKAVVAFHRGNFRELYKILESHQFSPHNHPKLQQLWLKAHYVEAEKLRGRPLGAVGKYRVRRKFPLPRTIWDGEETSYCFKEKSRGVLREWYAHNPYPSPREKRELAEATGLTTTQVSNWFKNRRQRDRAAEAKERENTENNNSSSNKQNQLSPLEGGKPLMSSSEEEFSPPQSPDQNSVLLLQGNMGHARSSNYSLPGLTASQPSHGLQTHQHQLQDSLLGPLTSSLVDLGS
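GST-Six1 + His-Eya2 (5X stock: 250/500 nM); Tris pH 8.0, 300 mM NaCl, 0.05% BSA, 0.02% Tween 20; GSH donor/Ni acceptor beads; 1 h 37 °C dark; AlphaScreen readout.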
D2 ag: Beta-Arrestin HTS for Positive Allosteric Modulators of the Human D2 Dopamine Receptor: Agonists; activation, % (no concentration beside the values); DiscoveRx PathHunter D2 beta-arrestin, luminescence, 90 min; 100% = 57 uM dopamine signal; hit rate 0.084% among 360,000; D(2) dopamine receptor (Homo sapiens), P14416; AID 624465, 2012; in the data active = activation above about 40%; inconclusive = about 15% to 40%; inactive = below about 15%; further: compound concentration not given in the record; the text of the record calls up to 30% inactive
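DiscoveRx PathHunter D2 beta-arrestin cells (2,100/well) attached overnight, then compound-stimulated 90 min at 37 C in HBSS/10 mM HEPES/0.1% Tween-20 buffer; beta-galactosidase complementation read by luminescence after 1 h at ambient temperature. Dopamine 57 uM final (EC100) as control.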
gsp ag: qHTS for Agonist of gsp, the Etiologic Mutation Responsible for Fibrous Dysplasia/McCune-Albright Syndrome: qHTS. Potency, µM (series often up to 76.9 µM), without a hit: at the highest dose activation (cAMP increase), usual class: activators. hit rate 0.13% among 340,000. AID 624287, 2012. gsp mutant cells, cAMP HTRF, 30 min; control for the full effect not named in the record; active = well fitted activation curve with a large enough effect; inconclusive = small, poorly fitted or top-dose-only effect, or another doubt; inactive = no such curve, though single readings can be large or run the other way; cell line not stated here;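 further: phosphodiesterase inhibitor Ro 20-1724 added with compounds to block cAMP breakdown; potency means the concentration at half of the fitted maximal effect; nearly all actives have a fitted effect of over 60% in size; about a fifth of the inactives were tested at one dose only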
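Cells stably selected in G418 were plated at 2000/well, grown 16-24 hr, then given compounds in DMSO with the PDE inhibitor […] (300 uM solution added) for 30 min at 37C; cAMP was read by HTRF.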
An asterisk follows results filed as active; ? = inconclusive; . = no result given; & = joins results of further samples; [ ] = dose if it differs, or a comment.

SMILES | CtBP-E1A inh | D2 potentiator | gsp antag | Six1-Eya2 inh | D2 ag | gsp ag
COCCN(Cc1ccccc1)C(=S)Nc1ccc(Cl)cc1 | . | -34.9 | -9.5% | -20.6 | -2.4 | ?
CS(=O)(=O)N1c2ccccc2[C@]2([C@@]34C[C@H]5C(=O)N[C@@H](Cc6ccccc6)C(=O)N5[C@@H]3N(S(C)(=O)=O)c3ccccc34)C[C@H]3C(=O)N[C@@H](Cc4ccccc4)C(=O)N3[C@H]12 | . | -14.5 | -3.0% | 4.7 | -2.9 | -27.9%
Cc1ccc(C)c(OCC(=O)Nc2ccc3c(c2)OCO3)c1 | -0.8 | -0.4 | -3.2% | -2.7 | -6.8 | ?
O=C(O/N=C1\CCCc2ccccc21)c1cccc(Cl)c1 | 10.0 | 1.4 | -3.2% | 2.7 | 0.7 | -28.2%
COc1ccc(-c2nn(CCC#N)cc2C=C(C#N)C#N)cc1 | -4.7 | -10.3 | -16.3% | -6.6 | -10.3 | 18.3%
COc1ccc(C(=O)NCC(=O)N2CC=C(c3ccccc3)CC2)cc1OC | -12.6 | -5.4 | 4.1% | 4.8 | 3.6 | 3.6%
COc1ccc(/C=C/c2nc3ccccc3n2C)cc1 | -9.4 | -7.6 | -21.1% | 11.9 | -1.9 | 6.5%[15.4 µM]
O=C(Nc1ccc(Cl)c(Cl)c1)Nc1ccc(N2CCCC2)c(S(=O)(=O)Nc2ccccc2Cl)c1 | -21.2 | 14.3 | -1.5% | -18.7 | 6.0 | -0.5%
O=C(O)c1ccc(C=NNC(=O)c2cccc3ccccc23)cc1 | -0.4 | 0.7 | 2.2% | 2.5 | 0.6 | -6.2%
COc1ccccc1Nc1nc(N)nc(CSC(=S)N2CCCCC2C)n1 (configuration not stated) | -3.5 | 1.4 | 3.8% | -0.4 | 1.2 | 11.0%
CC(=O)NCCNC(=O)C1Cc2c(-c3cccc(NC(C)=O)c3)ccnc2O1 (configuration not stated) | 7.4 | -9.3 | . | 0.4 | -4.0 | .
COc1cc(C(=O)N(C)CCOc2ccccc2)ccc1OCC(=O)Nc1cccc(C(F)(F)F)c1 | -0.1 | -27.1 | ? | -2.8 | -1.4 | 8.9%[15.4 µM]

One compound at a time (already shown).
Profile of `COc1ccc(C(=O)NCC(=O)N2CC=C(c3ccccc3)CC2)cc1OC` : CtBP-E1A inh = -12.6; D2 potentiator = -5.4; gsp antag = 4.1%; Six1-Eya2 inh = 4.8; D2 ag = 3.6; gsp ag = 3.6%
Profile of `CC(=O)NCCNC(=O)C1Cc2c(-c3cccc(NC(C)=O)c3)ccnc2O1` (configuration not stated) : CtBP-E1A inh = 7.4; D2 potentiator = -9.3; gsp antag = .; Six1-Eya2 inh = 0.4; D2 ag = -4.0; gsp ag = .

Next results follow.
SMILES | CtBP-E1A inh | D2 potentiator | gsp antag | Six1-Eya2 inh | D2 ag | gsp ag
CC(C)CC1Nc2ncnc(N3CCN(c4ccccn4)CC3)c2N(Cc2ccc(Cl)cc2)C1=O (configuration not stated) | -10.9&-5.2 | -29.7&-21.2 | -8.1% | -5.9&-3.2 | -5.0&-12.6 | 14.2%
Cc1ccc(C)c(N(C(=O)c2csnn2)C(C(=O)NC2CCCC2)c2cccnc2)c1 (configuration not stated) | 26.9 | 1.2 | -15.1% | 4.0 | -1.1 | ?
Cc1cc(C)n2ncc(C(=O)Nc3ccc4c(c3)OCO4)c2n1 | -2.6 | -14.4 | -3.5%[15.4 µM] | -12.2 | -7.8 | -21.3%
COC(=O)c1cc(S(=O)(=O)N2CCN(C(=O)c3ccco3)CC2)cn1C | . | -1.8 | 8.4% | 7.7 | 1.4 | -22.0%
Cc1ccnc(NS(=O)(=O)c2ccc(NC(=O)Cc3ccc(Cl)cc3)cc2)n1 | 3.4 | -1.2 | 6.2% | -0.2 | -1.9 | ?
CCOc1ccc(OCC)c(S(=O)(=O)NCc2ccc3c(c2)OCO3)c1 | -1.9 | -8.0 | -1.1% | 1.5 | -1.1 | -53.6%[inhibitor]
O=C(NCCCN1CCOCC1)c1cccc(S(=O)(=O)Nc2cc(Cl)ccc2Cl)c1 | -1.5 | -22.3 | -11.6% | 2.5 | -2.3 | -3.7%[15.4 µM]
CN1N=C(C(=O)Nc2ccc3c(c2)CCC3)CCC1=O | 11.0 | -5.9 | 4.4% | 7.1 | 5.9 | -43.6%[inhibitor]
CC(C)n1nnnc1SCC(=O)Nc1ccccc1F | -1.0 | -0.2 | 4.4% | -2.8 | -5.4 | -18.7%[15.4 µM]
N#CCSc1nccc(/C=C/c2ccccc2)n1 | 2.6 | -0.7 | -11.8% | 32.6 | -4.2 | -8.4%[15.4 µM]
CC(=O)Nc1ccc2c(c1)N(C(C)=O)c1ccccc1CC2 | -1.1 | -1.5 | -0.8% | -6.4 | -0.3 | -2.6%[15.4 µM]
CCN(CC)C(=O)c1ccc(COc2ccccc2Cl)o1 | 3.1 | -5.1 | -5.8% | 3.9 | 4.7 | 4.6%
Cc1c(CN2CCC(n3nccc3NC(=O)CCc3ccccc3)CC2)cnn1C | -0.6 | -27.1 | 6.6% | 1.5 | -3.7 | 2.4%
CCCCN(CCCC)CCCNC(=O)C1CC(c2cc(C(F)(F)F)cc(C(F)(F)F)c2)=NO1 (configuration not stated) | . | -10.0 | 7.9% | -0.2 | -0.8 | -11.3%
COc1cc(/C=C2\CCn3c2nc2cc(C(=O)O)ccc2c3=O)ccc1OC(F)F | . | 9.7 | -17.0% | ? | 1.6 | -12.6%
c1cncc(-c2cccnc2)c1 | ? | 2.4 | 2.5% | ? | -0.1 | -28.1%
O=C(Nc1nnc(-c2cc(Cl)ccc2Cl)o1)c1ccco1 | 3.2 | -0.7 | -10.6% | 3.6 | -1.7 | -19.1%[15.4 µM]
Cc1ccc(NC(=O)N2CCCc3ccccc32)cc1C | 7.0 | -14.2 | -3.0% | 6.3 | -11.6 | -7.2%
Cc1cccc(NC(=O)CNC(=O)c2cccc(-n3cccc3)c2)c1C | 3.7 | -23.0 | -1.1% | ? | -6.4 | ?
Nn1c(SCc2cn3ccccc3n2)nnc1-c1ccncc1 | 2.7 | 6.1 | -4.3% | 10.1 | -0.2 | 11.5%[15.4 µM]
Cc1ccc2c(C)c(C(=O)N(Cc3cccs3)C3CCS(=O)(=O)C3)oc2c1 (configuration not stated) | -8.4 | -1.8 | ? | -3.7 | -3.1 | -4.9%
CCOc1ccc(N2C(=O)S/C(=C\c3cc(OC)c(OC)c(OC)c3)C2=O)cc1 | 5.5 | -7.8 | 7.5% | -17.7 | -2.5 | ?
Cc1noc(C)c1S(=O)(=O)N(C)C[C@H]1Oc2c(NC(=O)Nc3ccccc3)cccc2C(=O)N([C@H](C)CO)C[C@@H]1C | 6.6 | 0.7 | ? | 10.7 | -3.8 | .
CC(=O)Nc1cccc(NC(=O)CSc2nc3c(=O)n(C)c(=O)n(C)c3n2C)c1 | 9.0 | 1.1 | 14.2% | -3.9 | -4.3 | -6.5%

The list goes on, starting with the last 5 of the part before.
SMILES | CtBP-E1A inh | D2 potentiator | gsp antag | Six1-Eya2 inh | D2 ag | gsp ag
Nn1c(SCc2cn3ccccc3n2)nnc1-c1ccncc1 | 2.7 | 6.1 | -4.3% | 10.1 | -0.2 | 11.5%[15.4 µM]
Cc1ccc2c(C)c(C(=O)N(Cc3cccs3)C3CCS(=O)(=O)C3)oc2c1 (configuration not stated) | -8.4 | -1.8 | ? | -3.7 | -3.1 | -4.9%
CCOc1ccc(N2C(=O)S/C(=C\c3cc(OC)c(OC)c(OC)c3)C2=O)cc1 | 5.5 | -7.8 | 7.5% | -17.7 | -2.5 | ?
Cc1noc(C)c1S(=O)(=O)N(C)C[C@H]1Oc2c(NC(=O)Nc3ccccc3)cccc2C(=O)N([C@H](C)CO)C[C@@H]1C | 6.6 | 0.7 | ? | 10.7 | -3.8 | .
CC(=O)Nc1cccc(NC(=O)CSc2nc3c(=O)n(C)c(=O)n(C)c3n2C)c1 | 9.0 | 1.1 | 14.2% | -3.9 | -4.3 | -6.5%
Cc1ccc(C(=O)NCC(c2ccc(F)cc2)N2CCOCC2)s1 (configuration not stated) | 0.0 | -24.8 | 7.8% | -7.4 | -1.4 | 3.5%[15.4 µM]
COc1ccc(CNC(=O)CN(C(=O)c2csnn2)c2cccc3ccccc23)cc1 | 1.7 | -1.8 | 0.3% | -3.0 | 0.6 | -23.5%
Nc1ncnc2c1ncn2[C@@H]1O[C@H](C(=O)NCc2ccc(OC(F)(F)F)cc2)[C@@H](O)[C@H]1O | -1.5 | -4.5 | . | 4.8 | -2.0 | .
CCCOc1ccc(C2c3c(oc4cc(C)c(C)cc4c3=O)C(=O)N2CCCN(C)C)cc1 (configuration not stated) | -0.1 | 0.9 | 4.2% | -2.5 | -3.4 | 20.8%
Nc1ncnc2c1ncn2CCN1CCOCC1 | -0.6 | -7.9 | 0.7% | -2.5 | -2.8 | -7.2%
CCN(c1ccccc1)S(=O)(=O)c1ccc(C(=O)Nc2ccccc2OC)cc1 | 0.0 | -4.3 | -15.0% | 2.0 | 2.2 | ?
Cc1cc(C)c2c(N)c(C(=O)Nc3nccs3)sc2n1 | ? | 25.7 | -6.6% | -1.4 | 2.7 | 24.3%
CC(C)NC(=O)NNc1c(Cl)cncc1Cl | -12.9 | -4.9 | 2.8% | 2.9 | -1.7 | -23.7%
CCCCC(=O)NC(=S)Nc1ccccc1C(=O)Nc1ccccc1 | -9.9 | -16.4 | 4.3% | -3.4 | -4.8 | 5.1%
COc1ccccc1CNC(=O)CSc1ccc(-c2ccccn2)nn1 | . | -13.5 | 4.7% | -67.4* | -5.8 | -3.9%
O=C1C(Cl)=C(N2CCCCCC2)C(=O)N1c1ccccc1Cl | 21.4 | -3.9 | -27.0% | 19.3 | -2.4 | 25.0%
COc1ccc(OC)c(S(=O)(=O)N2CCCC(C(=O)N3CCCC3)C2)c1 (configuration not stated) | -7.0 | -10.3 | -14.8% | 4.5 | -0.6 | 0.4%[15.4 µM]
CCOC(=O)N1CCN(C(=O)c2cccc(NS(=O)(=O)c3ccc(F)c(F)c3)c2)CC1 | -3.8 | 1.9 | 1.4% | -0.8 | 0.0 | -5.1%[15.4 µM]
